UCH37 DUB inh – human UCH37 deubiquitinating enzyme inhibition. Q9Y5K5. purified proteasome/UCH37, Ub-AMC cleavage fluorescence. inhibition, % (no concentration beside the values). hit rate 0.33% among 330,000. AID 588478;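 active means mean of two replicates above 20%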;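 further: 0% = compound-free wells with enzyme and 100% = wells lacking proteasome; stock transfer was 100 nL into about 20 µL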
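Material: Human UCH37 enzyme supplied as purified proteasome complex | Schedule: 30 min compound-proteasome preincubation then 25 min substrate reaction, room temperature | Detection: AMC fluorescence from Ub-AMC cleavage, excitation 355 nm, emission 460 nm | Benchmarks: Wells without proteasome as full block, compound-free enzyme plus substrate as uninhibited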
Beta2AR agonist – agonists of human beta-2 adrenergic receptor inducing internalization. P07550. response, % (test concentration not listed). hit rate 0.43% among 340,000. AID 504454. Am2.2-beta2AR cells, FAP receptor internalization, flow cytometry; reference of the scale not given here;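 active means response above a set limit, near 3 SD of response in nonfluorescent compounds, cut at about 42% in these data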;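 further: stock transfer was 100 nL into about 11 µL; a reference agonist was the positive control; negative values mostly stem from fluorescent compounds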
Target sequence (P07550 whole entry, looked up): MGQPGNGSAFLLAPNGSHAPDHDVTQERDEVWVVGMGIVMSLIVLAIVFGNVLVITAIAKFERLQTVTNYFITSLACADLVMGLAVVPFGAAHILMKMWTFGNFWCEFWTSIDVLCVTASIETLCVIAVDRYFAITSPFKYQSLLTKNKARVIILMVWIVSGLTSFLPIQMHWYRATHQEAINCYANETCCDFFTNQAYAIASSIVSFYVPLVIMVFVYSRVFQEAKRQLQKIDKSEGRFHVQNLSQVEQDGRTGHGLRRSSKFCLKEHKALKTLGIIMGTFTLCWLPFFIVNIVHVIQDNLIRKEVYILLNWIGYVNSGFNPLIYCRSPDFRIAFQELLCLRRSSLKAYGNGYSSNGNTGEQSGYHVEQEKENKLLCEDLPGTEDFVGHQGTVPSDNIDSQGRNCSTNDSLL
ALR H2O2 inh – blocks human ALR sulfhydryl oxidase activity. purified ALR, DTT oxidation, H2O2 HRP-luminol luminescence. inhibition, % (no concentration beside the values). hit rate 3.8% among 290,000;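 active means mean and each replicate at 75% or more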;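 further: stock transfer was 7.5 nL into about 7.5 µL; 0% = neutral wells and 100% = wells with inactivated enzyme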
FGF22 binding – FGF22 (human) thermal shift binding; Q9HCT0; recombinant FGF22 thermal shift, SYPRO orange fluorescence; percent of sucrose octasulfate shift, DMSO zero; calls only at 9.99 µM; hit rate 1.5% among 340,000; AID 651658;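 active means melting point raised past a set limit in the mean and every replicate; three in four hits are not shown here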
Target sequence (Q9HCT0 whole entry, looked up): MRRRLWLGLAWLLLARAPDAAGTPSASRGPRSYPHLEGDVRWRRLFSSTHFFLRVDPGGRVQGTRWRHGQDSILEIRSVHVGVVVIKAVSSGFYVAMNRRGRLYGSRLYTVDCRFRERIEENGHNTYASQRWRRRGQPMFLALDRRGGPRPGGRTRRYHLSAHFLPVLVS
rRNA inh HTS – selective bacterial rRNA inhibition in E. coli; GFP signal change (wild-type ribosome), % (concentration not given with the values); E. coli WT GFP vs humanized-ribosome RFP mutants, fluorescence, 24 h; hits give low values; DMSO median 0, no signal -100; hit rate 1.6% among 350,000;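 active means significant combined selectivity score with lowered wild-type GFP, culture density cut under 30%, mutant RFP and density less affected; inactive means any of these conditions unmet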; further: one replicate is shown; some compounds called inactive have numbers as strong as hits
Ecoli growth – E. coli growth inhibition; AID 1053175; hit rate 0.21% among 330,000; Escherichia coli growth, OD600, 23 h; hits give low values; OD600 absorbance (test concentration not listed);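 active means OD600 absorbance below the run mean of sample wells minus 3.6 SD, in any replicate, cut at about 0.56 in these data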;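 further: stock transfer was 300 nL into about 60 µL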
HNF4A DNA FP – change in binding of human HNF4 alpha to DNA; P41235; HNF4a-FITC DNA binding, fluorescence polarization, 1 h; activity change, % at 10 µM; hit rate 0.3% among 360,000; AID 1224865; in the data active means activity change above about 30%, passing the limit was not always enough;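 further: controls were the assay level and a saturating level of protein; the project sought stronger binding though the title names inhibitors; some compounds called inactive have numbers as strong as hits; positive values seem to mean higher polarization but the record does not say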
Target sequence (P41235 whole entry, looked up): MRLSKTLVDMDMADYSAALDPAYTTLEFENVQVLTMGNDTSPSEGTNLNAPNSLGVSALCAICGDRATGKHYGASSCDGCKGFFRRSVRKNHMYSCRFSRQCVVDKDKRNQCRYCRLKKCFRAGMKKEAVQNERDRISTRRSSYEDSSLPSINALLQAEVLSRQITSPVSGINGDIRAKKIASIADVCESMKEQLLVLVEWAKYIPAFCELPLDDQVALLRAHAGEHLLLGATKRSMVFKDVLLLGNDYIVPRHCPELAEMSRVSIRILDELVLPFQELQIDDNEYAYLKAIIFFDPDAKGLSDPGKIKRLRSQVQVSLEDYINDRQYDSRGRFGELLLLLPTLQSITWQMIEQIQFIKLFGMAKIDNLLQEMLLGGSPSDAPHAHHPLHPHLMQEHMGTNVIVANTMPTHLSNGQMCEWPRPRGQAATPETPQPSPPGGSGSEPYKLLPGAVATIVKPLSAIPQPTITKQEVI
rRNA inh HTS OD600 – further read-out of rRNA inh HTS, marked with its call; OD600 change, %; measured here: OD600 growth;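 optical density of the mix in the first replicate; 0 = DMSO median and -100 = no signal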
rRNA inh HTS RFP – also measured in rRNA inh HTS; calls as there; RFP signal change, %; measured here: RFP humanized mutant strains;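 first replicate; 0 = DMSO median and -100 = no signal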
Numbers without * were called inactive; i = inactive; x = not tested or not shown; & = joins results of further samples. The list is partial (hit frequency here may not be typical).

SMILES	UCH37 DUB inh	Beta2AR agonist	ALR H2O2 inh	FGF22 binding	rRNA inh HTS	rRNA inh HTS OD600	rRNA inh HTS RFP	Ecoli growth	HNF4A DNA FP
COc1ccc2c(c1)Cc1sc(NC(C)=O)nc1-2	6.7	0	5	x	x	x	x	0.64	3.5
Cc1c(CCOC(=O)c2ccccc2)sc[n+]1CC(=O)c1ccc(Br)cc1	5.5	1	x	x	-48*	-17*	-11*	0.66	5.4
Cc1cc(C)c2[nH]c(C(=O)Nc3ccc(F)cc3Br)cc2c1	-5.5	5	-3	i	6	8	1.0	0.71	6.7
O=C(c1ccc(S(=O)(=O)Cc2ccccc2Cl)c([N+](=O)[O-])c1)N1CCOCC1	-0.6	-1	-1	i	-14	-1	-4.5	0.69	0.9
Cc1ccc(-c2nnn(CC(=O)NCC3COCCO3)n2)o1 (configuration not stated)	-0.6	6	-3	x	x	x	x	0.75	1.6
CC(=O)c1c(C)[nH]c(C(=O)NNC(=O)COc2cc(C)ccc2C(C)C)c1C	4.1	-3	4	i	-4	-10	1.0	0.67	-0.8
COc1ccc(N)cc1NC(=O)CN1CCOCC1	x	x	x	i	2	4	4.7	x	6.3
O=C(Nc1cc2c(cc1C(=O)O)OCCCO2)c1ccc(C(F)(F)F)cc1	0.0	9	x	x	-12	-43	-6.6	0.7	0.6
COc1ccc(-n2c(SC3CCOC3=O)nc3ccccc32)cc1 (configuration not stated)	2.1	2	-2	x	x	x	x	0.7	0.6
Cc1cc(OCC(=O)N2CCC[C@@H]2C(=O)O)c2c(C)c(C)c(=O)oc2c1	-129	1	-19	i	x	x	x	0.69	2.7
Cc1cc(C)c(S(=O)(=O)NCC(=O)NCc2cc(=O)n(C)c(=O)n2C)c(C)c1	0.6	12	1	i	12	15	4.3	0.69	0.4
O=C(COCC(=O)N1CCOCC1)N1CCOCC1	2.3	3	21	i	16	7	4.6	0.69	-6.4
CC(C)c1ccc(NC(=O)C2CC(=O)N=C(N)S2)cc1 (configuration not stated)	26*	-2	-3	x	x	x	x	0.69	1.1
CCOC(=O)NC1(NCC(C)C)Oc2ccccc2O1	-0.2	1	-17	x	x	x	x	0.69	5.3
COc1ccc(OC)c(/C=C/c2ccnc3ccccc23)c1	x	-5	x	i	-16	-55	0.0	x	-0.6
Cc1ccc(NC(=O)C2CCC(CNc3c(N4CCC(C)CC4)c(=O)c3=O)CC2)cc1F (configuration not stated)	2.0	-4	-4	x	11	6	-4.8	0.71	3.5
CCOc1ccc(-c2c(C(=O)N/N=C(\C)c3cccnc3)nnn2-c2nonc2N)cc1	x	1	-3	i	0	-3	-1.7	x	-0.1
COc1cccc(OC)c1C(=O)NCCSC1CCCCC1	1.1	3	-19	x	0	3	0.1	0.73	3.5
Cc1cc(C)c(S(=O)(=O)N(CC(=O)N2CCOCC2)C2CCCCC2)c(C)c1	0.8	1	x	x	x	x	x	0.69	0.5
COc1cccc2c1-c1c(C(=O)O)cccc1C2=O	7.3	-4	x	i	-7	-4	6.4	0.67	-0.7

Profiles from above. Order of screens: UCH37 DUB inh	Beta2AR agonist	ALR H2O2 inh	FGF22 binding	rRNA inh HTS	rRNA inh HTS OD600	rRNA inh HTS RFP	Ecoli growth	HNF4A DNA FP
Cc1cc(C)c(S(=O)(=O)N(CC(=O)N2CCOCC2)C2CCCCC2)c(C)c1 as listed: 0.8	1	x	x	x	x	x	0.69	0.5
CCOc1ccc(-c2c(C(=O)N/N=C(\C)c3cccnc3)nnn2-c2nonc2N)cc1 as listed: x	1	-3	i	0	-3	-1.7	x	-0.1
COc1cccc(OC)c1C(=O)NCCSC1CCCCC1 as listed: 1.1	3	-19	x	0	3	0.1	0.73	3.5
COc1ccc(-n2c(SC3CCOC3=O)nc3ccccc32)cc1 (configuration not stated) as listed: 2.1	2	-2	x	x	x	x	0.7	0.6
Cc1cc(C)c(S(=O)(=O)NCC(=O)NCc2cc(=O)n(C)c(=O)n2C)c(C)c1 as listed: 0.6	12	1	i	12	15	4.3	0.69	0.4

The listing continues.
SMILES	UCH37 DUB inh	Beta2AR agonist	ALR H2O2 inh	FGF22 binding	rRNA inh HTS	rRNA inh HTS OD600	rRNA inh HTS RFP	Ecoli growth	HNF4A DNA FP
Cc1ccc(S(=O)(=O)NCc2ccccc2)cc1C(=O)NCc1ccncc1	x	x	x	i	9	17	0.1	x	-0.2
O=C(Nc1ccc(CN2CCCCC2)cc1)c1ccc(Br)o1	1.4	-4	-8	x	x	x	x	0.78	-0.1
COc1ccc(C2C(C#N)=C(N)OC3=C2C(=O)CC(C)(C)C3)cc1Cn1cc([N+](=O)[O-])cn1 (configuration not stated)	4.3	4	36	x	-13	-10	-2.3	0.73	-0.8
CCS(=O)(=O)c1ccc(O)c(NC(=O)c2ccc(S(=O)(=O)N3CCCCCC3)cc2)c1	5.9	4	22	x	-18	-19	-1.4	0.7	-1.9
O=[N+]([O-])c1ccc(OCc2cnc(Cl)s2)cc1	0.1	-2	x	i	7	5	-1.1	0.65	1.1
O=[N+]([O-])c1ccc(N2CCN(S(=O)(=O)c3ccccc3)CC2)c2cccnc12	9.0	1	-6	i	-10	-16	-0.3	0.66	4.0
Cc1cc(C)cc(-n2cc[nH]c2=S)c1	7.2	-1	56	x	x	x	x	0.72	0.2
O=C(c1ccccc1-c1ncc[nH]1)N1CCc2c([nH]c3ccccc23)C1c1ccccn1 (configuration not stated)	-0.3	15	x	i	3	-11	2.6	0.69	4.0
CC(=O)[C@@H]1[C@@H]2C(=O)N(c3ccccc3F)C(=O)[C@@H]2[C@H]2c3ccccc3C=NN12	1.3	-3	-17	i	-2	15	1.0	0.65	0.2
CCCCCOc1ccc(NC2=CC(=O)CCC2)cc1	3.3	21	2	i	11	-3	2.0	0.63	3.5
CCOC(=O)c1[nH]c(CSc2nnc(-c3ccc(OC)cc3)o2)c(C(=O)OCC)c1C	-5.6	1	-15	x	x	x	x	0.71	14
O=C(Cc1cccs1)Nc1nnc(SCc2ccc(F)cc2)s1	1.5	1	2	x	x	x	x	0.66	-3.2
CCOc1ncccc1C(=O)N1CCN(Cc2ccc3c(c2)OCO3)CC1	-0.1	1	-2	x	x	x	x	0.77	-1.0
CN1CCN(C(=O)c2ccc(-c3cccs3)s2)CC1	x	-12	-2	i	x	x	x	x	-3.6
CCOC(=O)c1ccccc1OC(=O)Oc1ccccc1C(=O)OCC	2.7	-2	x	i	-4	-5	-1.1	0.72	1.5
O=C(NC1CCCC1)C(c1ccc(Cl)cc1)N(C(=O)c1csnn1)C1CC1 (configuration not stated)	-38	-4	-26	i	4	3	-1.9	0.68	0.3
Nc1cc(N2CCCCC2)c([N+](=O)[O-])cc1Cl	0.3	-7	x	i	-52	-70	-15	0.69	0.4
O=C(Cn1cc(C(F)(F)F)cc(Cl)c1=O)Nc1cc(Cl)cc(Cl)c1	-2.5	12	-2	i	0	-3	-5.0	0.64	8.3
COc1cc(CNCCc2c[nH]c3ccccc23)ccc1OCc1ccccc1F	0.9	7	-2	i	4	0	5.3	0.62	-1.1
CCCCOc1ccc(C(=O)CCN2CCCCC2)cc1	3.0	-11	98*	i	2	0	1.5	0.64	3.8
COc1ccccc1N1CCN(C(=O)NC23CC4CC(CC(C4)C2)C3)CC1	0.0	-6	22	i	2	-2	-1.8	0.67	1.1
O=C(CSc1ccc(Br)cc1)Nc1ccc(N2CCOCC2)cc1	2.9	0	-11	i	7	10	-1.9	0.72	-2.0
CC(=O)Nc1cccc(-c2ccnc3c2CC(C)(C(=O)NC(C)C)O3)c1 (configuration not stated)	x	x	x	i	-2	-3	-0.9	x	-5.2
NS(=O)(=O)c1ccc(NC(=O)/C=C/c2cccs2)cc1	-3.8	-3	-3	i	-1	3	3.0	0.69	-0.3
CCOC(=O)N1CCC(NC(=O)C2CCN(S(=O)(=O)c3ccc4c(c3)oc(=O)n4C)CC2)CC1	3.1	-6	-2	i	15	13	1.2	0.71	3.2
CC(C)NC(=O)N(C)C[C@H]1Oc2ccc(NC(=O)C3CCCCC3)cc2C(=O)N([C@H](C)CO)C[C@@H]1C	2.0	4	2	i	3&12	5&6	-1.7&-4.4	x	-1.4
COc1ccc(C(=O)Nc2cc(C)on2)cc1S(=O)(=O)N1CC(c2ccccc2)CC1=O (configuration not stated)	1.9	0	8	i	18	14	3.5	0.66	-0.6
COc1ccnc2c1c(=O)n(Cc1cccc(F)c1)c(=O)n2C	0.8	-10	-2	i	2	10	0.2	0.71	4.4
O=C(NCc1ccccc1)c1ccccc1CO	0.5	-3	-2	x	x	x	x	0.67	-2.1
COc1cccc(-c2nc(-c3ccccc3)c(-c3ccccc3)[nH]2)c1OCC(=O)O	-77	7	5	i	-35	-57	-3.3	0.69	-2.8
C=C(C)COC(=O)c1ccccc1C(=O)OCC1(C)CO1 (configuration not stated)	0.2	-7	x	i	x	x	x	0.66	2.9
Cc1cccc(NC(=O)N2CCN(Cc3ccccc3)CC2)c1	4.2	1	-28	x	x	x	x	0.72	-3.0
O=C(COC(=O)c1ccco1)NNC(=O)c1ccc(Cl)cc1	5.7	2	-5	i	2	9	6.0	0.7	0.7
COc1cc(NC(=O)CN2C(=O)CN(C)C2=O)c(C)cc1[N+](=O)[O-]	8.1	-4	x	x	13	3	1.2	0.69	1.8
C[C@]12c3[nH]c4ccccc4c3CCN1C(=O)C(CC(=O)NCc1cccc(C(F)(F)F)c1)C[C@@H]2C(=O)N1CCOCC1 (some centres not stated)	2.6	-3	2	i	-4	-18	0.0	0.71	-3.2
Cc1cccc(NCC(=O)N/N=C/c2cccc(Br)c2)c1	x	1	2	i	0	2	-0.1	x	0.8
CN(Cc1ccccc1)c1nc2c(c(=O)[nH]c(=O)n2C)n1CCSc1nc2ccccc2[nH]1	-0.2	-24	-14	x	x	x	x	0.72	-0.5
COc1cc2c(cc1OC)CN(C(=O)c1cccs1)CC2	2.9	-26	-23	x	x	x	x	0.77	-3.4
CC(Oc1ccccc1)C(=O)N1CCN(c2ccc(N3CCCCCC3)nn2)CC1 (configuration not stated)	-42	0	16	i	11	8	4.0	0.69	-0.5
COc1cc(C(=O)OCCNC(=O)c2ccncc2)cc(OC)c1OC	3.4	6	-17	x	x	x	x	0.69	1.8

Records above printed as active in ALR H2O2 inh.
canonical_smiles,UCH37 DUB inh,Beta2AR agonist,ALR H2O2 inh,FGF22 binding,rRNA inh HTS,rRNA inh HTS OD600,rRNA inh HTS RFP,HNF4A DNA FP
CCCCOc1ccc(C(=O)CCN2CCCCC2)cc1,3.0,-11,98*,i,2,0,1.5,3.8

(more compounds)
SMILES	UCH37 DUB inh	Beta2AR agonist	ALR H2O2 inh	FGF22 binding	rRNA inh HTS	rRNA inh HTS OD600	rRNA inh HTS RFP	Ecoli growth	HNF4A DNA FP
CCN1C(=O)CC(N2CCC(C(=O)OC)CC2)C1=O (configuration not stated)	1.5	2	2	x	x	x	x	0.8	-3.3
CN(C)c1ccc(C#Cc2ccc3cc(CCO)oc(=O)c3c2)cc1	6.8	7	1	x	x	x	x	0.82	9.0
CN(C)S(=O)(=O)c1cccc(C(=O)Nc2ccc3c(c2)CCC3)c1	3.4	1	x	i	-19*	-8.9*	1.8*	0.63	-1.8
CSc1ncccc1C(=O)N1CCN(S(=O)(=O)c2ccc3c(c2)OCCO3)CC1	3.3	-2	1	i	-8	-2	-3.3	0.68	-1.6
CCOC(=O)c1c(C)[nH]c(C(=O)COC(=O)/C=C/c2ccc(OC(F)F)cc2)c1C	5.5	-2	-5	x	x	x	x	0.7	5.6
COc1ccc(NC(=O)CSc2nnc(-c3ccccc3)n2N)cc1	0.9	-11	-9	x	x	x	x	0.71	-1.8
O=C(COC(=O)c1ccc(Cl)nc1)NCCc1ccccc1	-2.0	-7	-10	i	1	-2	2.1	0.7	2.8

Assay outcomes deposited in PubChem by several laboratories.
